Bfl-1 A1 inh: caspase 3/7 activation in MEF A1-2A-BIM cells, primary screen, A1 inhibitor project, cell-based, luminescence, HTS. Caspase-Glo 3/7 luminescence, 3 h; percent of clofoctol response, vehicle zero. AID 2462, 2010. 330,000 tested, 0.066% active. caspase activation, % (concentration not given with the values);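 active = over half of replicate activation scores above 10%, or exactly half above 10 with the replicate mean above 10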;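 also: wells of about 30 µL received 50 nL stock; many hits fall short of the cut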
rRNA inh HTS: reduced GFP signal of wild-type E. coli, primary screen, bacterial rRNA inhibitor project, GFP/RFP fluorescence, OD600, single point. E. coli WT GFP vs humanized-ribosome RFP mutants, 24 h; active compounds read low; DMSO median 0, no signal -100. 350,000 tested, 1.6% active. GFP signal change (wild-type ribosome), % (no concentration beside the values);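 active = significant combined selectivity score with lowered wild-type GFP, culture density cut under 30%, mutant RFP and density less affected; inactive = any of these conditions unmet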; also: one replicate is shown; some compounds called inactive have numbers as strong as hits
AF4-AF9 inh: inhibitors of AF4 peptide binding to AF9, primary screen, biochemical, AlphaScreen, biotin-AF4 peptide, FLAG-AF9, single point; inhibition, % at 10 µM; 350,000 tested, 0.47% active; AID 651704, 2012;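 active = every replicate reaching a set inhibition limit, whatever the replicate mean, cut at about 25% in these data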;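 also: 0% = plate neutral control median and 100% = total signal loss; the record names both 10 and 1 µM as test concentration; the first replicate is given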
Target sequence (P42568 whole entry, looked up): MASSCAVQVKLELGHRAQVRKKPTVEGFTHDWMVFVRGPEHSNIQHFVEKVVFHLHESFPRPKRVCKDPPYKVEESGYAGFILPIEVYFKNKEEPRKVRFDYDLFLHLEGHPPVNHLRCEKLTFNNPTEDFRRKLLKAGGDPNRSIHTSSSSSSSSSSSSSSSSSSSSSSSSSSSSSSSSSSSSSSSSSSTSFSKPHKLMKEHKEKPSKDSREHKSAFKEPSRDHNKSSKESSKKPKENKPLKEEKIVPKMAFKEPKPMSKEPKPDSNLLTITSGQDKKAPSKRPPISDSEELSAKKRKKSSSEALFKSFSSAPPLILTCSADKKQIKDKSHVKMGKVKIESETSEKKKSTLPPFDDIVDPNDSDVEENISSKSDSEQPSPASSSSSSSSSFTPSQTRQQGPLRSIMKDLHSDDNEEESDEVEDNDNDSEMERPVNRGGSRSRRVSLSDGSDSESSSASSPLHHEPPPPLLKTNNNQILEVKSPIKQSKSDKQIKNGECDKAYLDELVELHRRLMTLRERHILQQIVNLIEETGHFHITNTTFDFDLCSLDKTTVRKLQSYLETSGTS
Ecoli growth: E. coli growth inhibition, primary screen, OD600. Escherichia coli growth, 23 h; active compounds read low. OD600 absorbance (no concentration beside the values). 330,000 tested, 0.21% active;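 active = OD600 absorbance below the run mean of sample wells minus 3.6 SD, in any replicate, cut at about 0.56 in these data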;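 also: stock transfer was 300 nL into about 60 µL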
UCH37 DUB inh: inhibitors of human UCH37 deubiquitinase, primary screen, biochemical, Ub-AMC cleavage, fluorescence. Ubiquitin carboxyl-terminal hydrolase isozyme L5 (Homo sapiens), Q9Y5K5. purified proteasome/UCH37. inhibition, % (no concentration beside the values). 330,000 tested, 0.33% active;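 active = mean of two replicates above 20%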;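 also: 0% = compound-free wells with enzyme and 100% = wells lacking proteasome; stock transfer was 100 nL into about 20 µL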
Target sequence (Q9Y5K5 whole entry, looked up): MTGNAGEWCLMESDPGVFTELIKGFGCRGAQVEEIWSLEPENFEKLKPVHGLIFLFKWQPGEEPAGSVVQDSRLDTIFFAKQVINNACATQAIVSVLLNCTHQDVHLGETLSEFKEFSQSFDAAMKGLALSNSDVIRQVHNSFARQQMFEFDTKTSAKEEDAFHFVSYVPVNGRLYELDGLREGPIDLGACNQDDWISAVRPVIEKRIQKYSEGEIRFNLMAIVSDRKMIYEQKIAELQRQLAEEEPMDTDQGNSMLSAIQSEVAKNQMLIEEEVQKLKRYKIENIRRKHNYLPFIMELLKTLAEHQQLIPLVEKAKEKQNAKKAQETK
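Signal – fluorescence, ex 355 nm, em 460 nm · System – Proteasome-bound UCH37 · Input – 0.15 nM proteasome as dispensed · Timing – 30 min preincubation with enzyme, 25 min cleavage at room temperature · Read-out basis – percent inhibition of cleavage signal versus uninhibited and no-proteasome wells · Medium – Tris-HCl pH 7.4 with ATP-MgCl2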
FGF22 binding: binders of human FGF22 protein, primary screen, FGF22 synaptogenesis inhibitor project, biophysical, thermal shift, single point; 340,000 tested, 1.5% active; recombinant FGF22 thermal shift, SYPRO orange fluorescence; percent of sucrose octasulfate shift, DMSO zero; Fibroblast growth factor 22 (Homo sapiens), Q9HCT0; calls only at 9.99 µM; AID 651658, 2012;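 active = melting point raised past a set limit in the mean and every replicate; three in four hits are not shown here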
Target sequence (Q9HCT0 whole entry, looked up): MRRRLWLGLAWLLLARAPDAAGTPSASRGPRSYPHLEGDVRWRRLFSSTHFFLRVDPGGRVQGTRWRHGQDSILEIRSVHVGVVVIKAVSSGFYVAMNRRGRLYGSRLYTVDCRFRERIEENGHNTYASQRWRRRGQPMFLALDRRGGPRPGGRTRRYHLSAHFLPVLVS
Beta apoptosis: inhibitors of cytokine-induced beta cell apoptosis, primary screen, luminescence; INS-1E cytokine-induced death, ATP luminescence, 48 h; percent of positive-control rescue, neutral wells zero; protection from apoptosis, % (no concentration beside the values); 300,000 tested, 0.8% active; AID 435005, 2010;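 active = all replicates at 75% or more, or half of them and the mean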;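 also: 0% = cytokine-treated negative control wells and 100% = positive control rescue; higher means more ATP so stronger rescue from cytokine killing; wells of about 40 µL received 100 nL stock; the first replicate is given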
T cruzi inh: inhibitors of intracellular T. cruzi growth, primary screen, luminescence, NIH3T3 host cells; T. cruzi beta-gal in NIH3T3, 90 h; inhibition, % (test concentration not listed); 300,000 tested, 1.4% active;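 active = mean inhibition across valid replicates above about 55%, limit read from the data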;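 also: signal also drops with host cell toxicity which is not excluded here; 0% = plate median of DMSO wells and 100% = zero luminescence signal; higher percent means less beta-gal luminescence so fewer parasites; stock transfer was 50 nL into about 50 µL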
rRNA inh HTS OD600: also measured in rRNA inh HTS; calls as there; OD600 change, %; measured here: OD600 growth;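 optical density of the mix in the first replicate; 0 = DMSO median and -100 = no signal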
rRNA inh HTS RFP: further read-out of rRNA inh HTS, marked with its call; RFP signal change, %; measured here: RFP humanized mutant strains;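 first replicate; 0 = DMSO median and -100 = no signal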
Numbers without * were called inactive; i = inactive; x = not tested or not shown.

SMILES	Bfl-1 A1 inh	rRNA inh HTS	rRNA inh HTS OD600	rRNA inh HTS RFP	AF4-AF9 inh	Ecoli growth	UCH37 DUB inh	FGF22 binding	Beta apoptosis	T cruzi inh
Cc1ccc2nc(N(CCCN(C)C)C(=O)c3cc4ccccc4oc3=O)sc2c1	2.9	x	x	x	x	0.67	3.7	x	-8	60*
COc1cc(OC)c2c(-c3ccccc3)cc(=O)oc2c1C(CC(=O)N1CCCC1)c1ccc2c(c1)OCO2 (centres undefined)	0.9	6	-11	0.8	4.8	0.7	-0.6	i	2	15
O=C(OCC(=O)c1ccc[nH]1)c1ccc(S(=O)(=O)N2CCCCCC2)cc1	0.6	x	x	x	x	0.76	1.5	x	1	-17
Cc1cccc(CC(=O)Nc2cccnc2)c1	-0.1	5	8	1.9	5.7	0.67	-0.1	i	4	-8
COc1ccc(/C=C/C(=O)OCC(=O)NC(=O)NC(C)(C)C)cc1	0.5	9	7	1.4	-0.4	0.69	1.6	i	-6	-19
CCN(CC)C(=O)[C@H]1C[C@H](CC(=O)NCCCn2ccnc2)C(=O)N2CCc3c([nH]c4cc(CCC(=O)N(C)C)ccc34)[C@]12C	x	x	x	x	-3.5	0.71	2.8	i	x	x
CCn1cc(CNC(=O)/C=C/c2ccc([N+](=O)[O-])cc2)cn1	0.1	9	8	-5.0	0.3	0.61	7.2	i	4	-18
CCOc1ccccc1NC(=O)C(=O)CC(=O)c1cccc(OC)c1	-0.7	6	19	2.8	4.6	0.67	4.5	i	2	4
COc1ccccc1Sc1nc(-c2ccccc2)ncc1OC	0.1	-5	-15	-5.3	-17	0.69	-1.0	x	-5	4
COc1cc(CN2CCN(C(=O)c3cccc4ccccc34)CC2)cc(OC)c1OC	0.7	9	0	-2.5	1.3	0.68	3.4	i	1	-4

Of the compounds above, three contain sulfur.
SMILES	Bfl-1 A1 inh	rRNA inh HTS	rRNA inh HTS OD600	rRNA inh HTS RFP	AF4-AF9 inh	Ecoli growth	UCH37 DUB inh	FGF22 binding	Beta apoptosis	T cruzi inh
Cc1ccc2nc(N(CCCN(C)C)C(=O)c3cc4ccccc4oc3=O)sc2c1	2.9	x	x	x	x	0.67	3.7	x	-8	60*
O=C(OCC(=O)c1ccc[nH]1)c1ccc(S(=O)(=O)N2CCCCCC2)cc1	0.6	x	x	x	x	0.76	1.5	x	1	-17
COc1ccccc1Sc1nc(-c2ccccc2)ncc1OC	0.1	-5	-15	-5.3	-17	0.69	-1.0	x	-5	4

Other records:
SMILES	Bfl-1 A1 inh	rRNA inh HTS	rRNA inh HTS OD600	rRNA inh HTS RFP	AF4-AF9 inh	Ecoli growth	UCH37 DUB inh	FGF22 binding	Beta apoptosis	T cruzi inh
Cc1cc(C)c(S(=O)(=O)NCc2ccc3c(c2)OCO3)c(C)c1	-0.4	0	-2	0.1	-0.6	0.69	1.6	i	-5	1
C=CCNC(=O)c1csc(-c2ccccc2)n1	-0.2	x	x	x	x	0.64	4.9	x	0	-8
COCCCn1c(SCC(=O)Nc2cccc(C(=O)OC)c2)nnc1-c1ccncc1	-0.1	x	x	x	x	0.72	5.6	x	3	-3
O=C(CSc1ccc(Cl)cc1)N1N=CCC1c1ccccc1 (centres undefined)	0.0	-38	-5	-11	-1.1	0.69	-0.9	i	-10	13
COc1ccc(C(=S)N2CCOCC2)cc1OC(=O)c1cc([N+](=O)[O-])c(C)c([N+](=O)[O-])c1	0.1	x	x	x	x	0.71	4.4	x	-7	-3
CCOC(=O)N1CCN(Cc2nc3cc(NC(=O)c4cccs4)ccc3n2C)CC1	0.2	-2	0	3.6	0.6	0.71	7.4	i	-8	-6
CCOC(=O)c1c(C)[nH]c(C(=O)COC(=O)CNC(=O)c2ccc(Cl)cc2)c1C	1.0	x	x	x	x	0.7	-0.3	x	-5	0
Cc1ccc(OCc2ccccc2Br)c([N+](=O)[O-])n1	-1.3	-4	2	-1.7	1.4	0.67	2.1	i	-1	1
CCc1ccccc1N(C(=O)c1ccco1)C(C(=O)NC1CCCC1)c1cccnc1 (centres undefined)	0.2	2	9	0.1	-1.2	0.62	3.0	i	1	19
COc1cccc(NC(=O)CSc2nc3c(c(=O)n2C)SC(C)C3)c1 (centres undefined)	1.3	1	-6	1.1	0.4	0.72	6.8	i	0	-5
CCN(CC(O)COCc1ccc(Cl)cc1)C1CCCCC1 (centres undefined)	0.5	1	3	3.0	0.8	0.64	3.8	i	-3	18
CCCC(=O)Nc1nc(C)c(-c2csc(Nc3cc(OC)ccc3OC)n2)s1	0.1	2	6	-0.9	x	0.73	-4.3	i	3	1
Cc1cc(Cl)ccc1NC(=S)NCc1ccc(F)cc1	0.7	-3	-7	-2.9	0.7	0.6	-0.2	i	x	-8
COc1ccc(-n2c(=O)cc(N3CCc4ccccc43)[nH]c2=O)cc1	-0.1	-3	3	-0.6	-6.8	0.64	5.0	i	1	-22
Cc1cc(C(=O)OCC(=O)N2CCc3ccccc32)c(C)o1	-2.9	2	3	1.4	x	0.7	-3.8	x	-11	-19
CC(=O)N1CCC(C(=O)OCc2ccc(Cl)cc2)(c2ccccc2)CC1	0.3	-25	-61	-1.4	-0.1	0.67	4.2	i	-4	7
COc1ccc(Cl)cc1NC(=O)C1CCN(C(=O)C2CC(=O)N(c3ccc(C)cc3)C2)CC1 (centres undefined)	0.7	-1	-10	2.6	0.9	x	x	i	5	0
O=C1c2ccccc2C(=O)N1COc1ccc(S(=O)(=O)N2CCOCC2)cc1[N+](=O)[O-]	-0.4	0	2	-1.0	-2.0	0.7	4.4	i	-4	-2
O=C(CN1C(=O)NC2(CCc3ccccc32)C1=O)c1cccs1 (centres undefined)	-1.6	-1	-3	-3.3	-0.9	0.69	4.0	i	6	x
Cc1ccc2cccc(SCC(=O)Nc3ccc(F)cc3)c2n1	-1.4	0	6	-0.9	0.5	0.66	-29	i	-4	16
CCOC(=O)Nc1ccc(NS(=O)(=O)c2ccc(C)cc2)cc1	-0.3	x	x	x	x	0.66	2.0	x	x	-7
O=C(Nc1scc(-c2cccs2)c1C(=O)O)c1cccs1	-0.6	x	x	x	x	0.72	0.3	x	-3	8
O=S(=O)(NCCS(=O)(=O)N1CCN(c2ccccc2)CC1)c1ccc(F)cc1	0.2	10	14	0.0	-0.3	0.63	-0.2	i	x	-2
COc1ccc(NC(=O)CC2C(=O)N(C)C(=S)N2CCc2ccc(F)cc2)cc1 (centres undefined)	1.8	x	x	x	-1.9	0.61	1.7	i	2	33
Cc1ccc(C(=O)N(Cc2cccs2)C2CCS(=O)(=O)C2)cc1 (centres undefined)	0.3	0	6	-1.7	-1.1	0.67	5.0	i	3	-2
CN(C)S(=O)(=O)Oc1ccsc1C(=O)Nc1ccccc1Cl	0.1	x	x	x	x	0.68	1.0	x	-3	18
O=C(CN(Cc1ccc(F)cc1)C(=O)c1csnn1)NCc1ccccc1	0.5	x	x	x	1.2	0.64	3.1	i	-1	5
CC1(C)Cc2c(c(N3CCOCC3)nc3sc4c(NCCN5CCOCC5)nnnc4c23)CS1	0.0	-28	-25	-3.0	20	0.67	4.2	i	6	10
O=[N+]([O-])c1ccc(N2CCCC2)cc1NC(c1ccccc1)c1ccccc1	0.5	x	x	x	x	0.79	10.0	x	5	15
O=C(NC1(C(F)(F)F)Oc2ccccc2O1)N1CCCC1	0.0	x	x	x	x	0.75	4.9	x	-8	10
Cc1cccc(C(=O)NCc2nnc(SCC(=O)NC(C)c3ccccc3)n2C)c1 (centres undefined)	0.5	2	2	-0.6	0.2	0.68	2.2	i	-1	-5
Cc1nnc(SCC(=O)Nc2sc3c(c2C(=O)c2ccccc2)CCCC3)s1	0.4	x	x	x	x	0.65	-0.2	x	3	7
O=[N+]([O-])c1cc(Br)c(O)c(C=Nc2ccc(N3CCOCC3)cc2)c1	0.3	1	-3	6.0	3.5	0.63	9.5	x	0	26
CN1CCCCCC1=Nc1ccccc1C#N	0.1	x	x	x	x	0.76	1.1	x	-5	8
O=C(c1ccco1)N1CCN(S(=O)(=O)c2ccc([N+](=O)[O-])cc2)CC1	-0.1	16	6	-6.4	-0.8	0.64	4.3	i	-4	49
CCC(C(=O)Nc1ncc(C)s1)c1ccccc1 (centres undefined)	-0.5	14	6	1.7	1.4	0.64	0.9	x	0	2
Cc1ccc(Nc2c(-c3ccc(N4CCOCC4)cc3)nc3ncccn23)c(C)c1	-0.5	-1	-4	0.2	6.8	0.74	-16	i	0	4
CCC(C)(C)NC(=O)c1ccc2c(c1)N(CC(=O)OC)C(=O)C(C)(C)O2	0.4	x	x	x	x	0.72	-0.9	x	-5	11
CC(=O)N/C(=N/c1nc(C)cc(C)n1)Nc1ccc(C)cc1Cl	x	5	8	-0.2	-17	0.7	3.7	i	x	17
CCOC(=O)C(O)(NC(=O)c1cccnc1)C(F)(F)F (centres undefined)	0.2	x	x	x	x	0.79	-0.7	x	-25	x
Cc1ccc(C(=O)OC(C)C(=O)NC2CCCCC2C)cc1S(=O)(=O)N1CCOCC1 (centres undefined)	1.6	17	14	3.5	-0.8	0.72	1.2	i	0	1
COC1=C(Nc2ccc(OC)cc2)C(=O)c2ccccc2C1=O	0.3	x	x	x	x	0.64	6.0	x	21	9
CC1(C)Oc2ccc3ccc(=O)oc3c2C(N2CCCCC2)C1O (centres undefined)	1.6	x	x	x	x	0.66	-21	x	0	-30
CCn1ncc(Br)c1C(=O)Nc1cccc(F)c1	0.0	-2	4	-0.2	-0.2	0.7	0.7	i	-1	-10
COc1ccccc1C(C)NC(=O)c1ccccc1SCC(=O)N1CCCC1 (centres undefined)	-0.1	0	-1	0.3	1.2	0.7	-0.8	i	-7	31
COc1ccc(/C=C/C(=O)C2C(=O)C=C(C)OC2=O)cc1O (centres undefined)	0.3	x	x	x	x	0.64	6.5	x	4	-6
Cc1cc(=O)[nH]c(CN2CCC(c3ccccc3)CC2)n1	0.4	6	8	-1.8	-13	0.67	3.0	i	-6	-18
O=C(NCC1CCCO1)c1ccc(COc2ccccc2)cc1 (centres undefined)	-0.4	-13	-15	0.4	1.2	0.68	0.6	i	8	-9
COc1ccc(NC(=O)COC(=O)c2c3c(nc4ccccc24)CCCC3)cc1Cl	-1.6	x	x	x	x	0.75	0.0	x	-9	12
CC(C)C(C(=O)NC(C)(C)C)N(CCN1CCOCC1)C(=O)CNS(=O)(=O)c1ccccc1 (centres undefined)	-0.5	5	3	2.5	-1.8	0.71	5.5	i	1	-13

Screening data: PubChem, several laboratories

An excerpt (hit frequency here may not be typical).
